High-throughput results (PubChem BioAssay)
UCH37 inh: blocks the human deubiquitinase UCH37. 330,000 compounds, 0.33% hits. AID 588478. Q9Y5K5. purified proteasome/UCH37, Ub-AMC cleavage fluorescence. inhibition, % (no concentration beside the values);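 active = mean of two replicates above 20%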;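 also: 0% = compound-free wells with enzyme and 100% = wells lacking proteasome; stock transfer was 100 nL into about 20 µL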
Target sequence (Q9Y5K5 whole entry, looked up): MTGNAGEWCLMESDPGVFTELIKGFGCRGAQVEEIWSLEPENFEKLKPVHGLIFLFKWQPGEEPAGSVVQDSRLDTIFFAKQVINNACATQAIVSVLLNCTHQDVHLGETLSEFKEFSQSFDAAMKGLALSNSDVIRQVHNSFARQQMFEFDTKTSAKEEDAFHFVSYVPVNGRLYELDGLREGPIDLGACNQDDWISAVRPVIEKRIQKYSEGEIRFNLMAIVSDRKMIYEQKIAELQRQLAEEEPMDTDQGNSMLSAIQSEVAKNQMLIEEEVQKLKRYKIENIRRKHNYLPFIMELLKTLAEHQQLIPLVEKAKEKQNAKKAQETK
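system = Proteasome-associated human UCH37 deubiquitinase | amount = 0.15 nM proteasome as dispensed | medium = pH 7.4 Tris-HCl (50 mM) with ovalbumin, ATP-MgCl2, DTT | incubation = 30 min preincubation with enzyme, 25 min cleavage at room temperature | detection = AMC fluorescence 355/460 nm | read-out basis = percent inhibition | controls = no-proteasome and no-compound wells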
FGF22 binding: FGF22 (human) thermal shift binding; Q9HCT0; recombinant FGF22 thermal shift, SYPRO orange fluorescence; percent of sucrose octasulfate shift, DMSO zero; calls only at 9.99 µM; 340,000 compounds, 1.5% hits; AID 651658;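 active = melting point raised past a set limit in the mean and every replicate; inconclusive = no clear call; three in four hits are not shown here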
E coli growth: blocks Escherichia coli growth | OD600, 23 h; hits give low values | OD600 absorbance (concentration not given with the values) | 330,000 compounds, 0.21% hits;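 active = OD600 absorbance below the run mean of sample wells minus 3.6 SD, in any replicate, cut at about 0.56 in these data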;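 also: stock transfer was 300 nL into about 60 µL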
rRNA inh HTS: inhibits bacterial ribosomal RNA function over humanized ribosomes; E. coli WT GFP vs humanized-ribosome RFP mutants, fluorescence, 24 h; hits give low values; DMSO median 0, no signal -100; GFP signal change (wild-type ribosome), % (concentration not given with the values); 350,000 compounds, 1.6% hits; AID 720706;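 active = significant combined selectivity score with lowered wild-type GFP, culture density cut under 30%, mutant RFP and density less affected; inactive = any of these conditions unmet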; also: one replicate is shown; some compounds called inactive have numbers as strong as hits
ALR H2O2 inh: human ALR oxidase inhibition via reduced H2O2 | purified ALR, DTT oxidation, H2O2 HRP-luminol luminescence | inhibition, % (concentration not given with the values) | 290,000 compounds, 3.8% hits | AID 485317;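 active = mean and each replicate at 75% or more; inconclusive = only one of the two met; inactive = neither met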;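 also: stock transfer was 7.5 nL into about 7.5 µL; 0% = neutral wells and 100% = wells with inactivated enzyme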
Target sequence (P55789 whole entry, looked up): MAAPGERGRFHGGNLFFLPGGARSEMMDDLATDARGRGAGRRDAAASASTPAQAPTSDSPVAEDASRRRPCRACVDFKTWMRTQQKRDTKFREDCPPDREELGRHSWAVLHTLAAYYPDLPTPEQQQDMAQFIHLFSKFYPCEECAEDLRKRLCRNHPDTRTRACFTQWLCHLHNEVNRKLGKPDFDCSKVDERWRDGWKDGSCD
B2AR ag: activates human beta-2 adrenergic receptor causing internalization; P07550; Am2.2-beta2AR cells, FAP receptor internalization, flow cytometry; reference of the scale not given here; response, % (concentration not given with the values); 340,000 compounds, 0.43% hits; AID 504454;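 active = response above a set limit, near 3 SD of response in nonfluorescent compounds, cut at about 42% in these data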;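 also: stock transfer was 100 nL into about 11 µL; a reference agonist was the positive control; negative values mostly stem from fluorescent compounds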
HNF4A DNA FP: change in binding of human HNF4 alpha to DNA; P41235; HNF4a-FITC DNA binding, fluorescence polarization, 1 h; activity change, % at 10 µM; 360,000 compounds, 0.3% hits; AID 1224865; in the data active = activity change above about 30%, passing the limit was not always enough;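 also: controls were the assay level and a saturating level of protein; the project sought stronger binding though the title names inhibitors; some compounds called inactive have numbers as strong as hits; positive values seem to mean higher polarization but the record does not say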
Target sequence (P41235 whole entry, looked up): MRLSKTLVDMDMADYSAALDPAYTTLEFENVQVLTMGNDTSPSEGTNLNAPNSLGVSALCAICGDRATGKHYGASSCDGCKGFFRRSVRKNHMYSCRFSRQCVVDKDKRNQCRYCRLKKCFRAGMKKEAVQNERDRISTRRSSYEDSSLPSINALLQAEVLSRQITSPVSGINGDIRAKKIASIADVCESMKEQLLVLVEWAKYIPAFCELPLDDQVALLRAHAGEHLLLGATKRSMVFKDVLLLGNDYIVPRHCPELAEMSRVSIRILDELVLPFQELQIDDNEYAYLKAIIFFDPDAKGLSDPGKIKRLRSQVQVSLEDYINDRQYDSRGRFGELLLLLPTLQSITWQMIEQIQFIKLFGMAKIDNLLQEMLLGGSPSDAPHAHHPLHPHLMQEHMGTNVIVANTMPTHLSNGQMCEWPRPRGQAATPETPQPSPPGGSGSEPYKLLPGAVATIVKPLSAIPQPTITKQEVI
rRNA inh HTS OD600: second read-out of rRNA inh HTS, no call of its own (marks repeat the call); OD600 change, %; measured here: OD600 growth;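 optical density of the mix in the first replicate; 0 = DMSO median and -100 = no signal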
rRNA inh HTS RFP: also measured in rRNA inh HTS; calls as there; RFP signal change, %; measured here: RFP humanized mutant strains;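 first replicate; 0 = DMSO median and -100 = no signal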
Numbers without * were called inactive; i = inactive; ? = inconclusive; · = no result given. A portion of the library; rates above refer to the full screens.

The line under a structure holds: UCH37 inh	FGF22 binding	E coli growth	rRNA inh HTS	rRNA inh HTS OD600	rRNA inh HTS RFP	ALR H2O2 inh	B2AR ag	HNF4A DNA FP
CCn1c(C(C#N)/C(=N\S(=O)(=O)c2cccs2)c2ccccc2)nc2ccccc21 (stereo unspecified)
    ·	·	·	·	·	·	9	2	-3.3
CNC(=O)CCc1ccc(OC)cc1
    2.7	i	0.68	2	-7	-2.8	-9	-1	3.7
CN1C(C)(C)CCCC1(C)C
    2.9	i	0.7	·	·	·	-18	2	1.3
C=CCOc1ccc(CN(C)c2ccc(S(=O)(=O)N3CCN(C)CC3)cc2[N+](=O)[O-])cc1
    0.8	i	0.61	-29	-39	-9.3	-4	-10	0.2
Cc1cccc(-n2ncc3c(NNC(=O)c4ccco4)ncnc32)c1
    3.9	i	0.68	-6	-15	-2.1	6	-1	0.0
COc1cccc(C(=O)N2CCC(C(=O)NCc3ccco3)CC2)c1
    -0.8	i	0.67	-6	-12	-0.6	-8	-4	-1.6
CCNC(=S)NN(c1ccccc1)c1ccccc1
    4.3	·	0.72	·	·	·	98*	-11	0.2
Cc1ccc(C(=O)NNC(=O)CCN2C(=O)C3CCCCC3C2=O)cc1 (stereo unspecified)
    6.2	i	0.63	3	-12	-2.8	-3	0	-1.4
O=C(NCc1cccnc1)C1c2ccccc2C(=O)N1C1CCCCCC1 (stereo unspecified)
    1.7	i	0.66	10	-1	-6.3	-27	2	4.0
O=C(Oc1cccc2cccnc12)c1ccco1
    1.9	·	0.7	·	·	·	-3	4	-1.9
O=[N+]([O-])/C(C(Cl)=C(Cl)Cl)=C1\Nc2ccccc2O1
    3.0	i	0.66	8	4	1.0	37	25	3.5
N=c1scc(-c2ccccc2)n1/N=C/c1ccco1
    ·	·	·	·	·	·	-2	-7	7.7
C/C(=N\NC(=S)NCc1ccccc1)c1ccc(Cl)s1
    ·	i	·	11	7	11	·	0	0.1
CCOC(=O)C1=C(C)OC(N)=C(C#N)C1c1ccc(OC)c(CSc2ccccn2)c1 (stereo unspecified)
    -1.4	i	0.68	0	-4	-2.0	-1	-6	-0.4
Cc1ccc(NCCC(=O)c2ccccc2)cc1Cl
    1.7	i	0.71	·	·	·	-1	1	0.7

2 successive entries out of the list so far, quoted:
The line under a structure holds: UCH37 inh	FGF22 binding	E coli growth	rRNA inh HTS	rRNA inh HTS OD600	rRNA inh HTS RFP	ALR H2O2 inh	B2AR ag	HNF4A DNA FP
O=[N+]([O-])/C(C(Cl)=C(Cl)Cl)=C1\Nc2ccccc2O1
    3.0	i	0.66	8	4	1.0	37	25	3.5
N=c1scc(-c2ccccc2)n1/N=C/c1ccco1
    ·	·	·	·	·	·	-2	-7	7.7

Next section:
The line under a structure holds: UCH37 inh	FGF22 binding	E coli growth	rRNA inh HTS	rRNA inh HTS OD600	rRNA inh HTS RFP	ALR H2O2 inh	B2AR ag	HNF4A DNA FP
CC(=O)c1ccc(NC(=O)CCc2nnc3ccc(N4CCC5(CC4)OCCO5)nn23)cc1
    4.0	i	0.66	-2	1	-1.8	-10	-6	1.1
Cc1ccc(S(=O)(=O)N2CCCC(C(=O)NCCCN3CCCCC3C)C2)cc1 (stereo unspecified)
    1.3	·	0.75	2	-5	0.7	1	14	0.4
CC(C)[C@H](N)c1cn([C@@H](CO)C(=O)N2CCNCC2)nn1
    1.0	i	·	6	9	-6.9	-6	-2	0.9
COc1ccc([N+](=O)[O-])cc1NC(=O)Nc1ccc(OC)c(OC)c1
    5.9	i	0.73	-8	-3	-2.3	-13	15	-2.9
Cn1ccnc1C(=O)c1ccc(NN)c([N+](=O)[O-])c1
    8.1	i	0.7	16	10	5.3	6	1	-5.0
O=C1N/C(=C\c2ccccc2)c2ccccc21
    -4.1	·	0.71	·	·	·	15	-13	-1.4
Cc1cc(N2C(=O)C(O)=C(C(=O)c3ccc(C)o3)C2c2ccc(OCc3ccccc3)cc2)no1 (stereo unspecified)
    ·	i	·	-5	5	2.6	38	4	0.6
CCc1nccn1S(=O)(=O)c1ccc(Br)cc1Br
    5.3	·	0.73	·	·	·	0	2	-0.8
O=C(COC(=O)c1c(Cl)cccc1Cl)Nc1ccccc1Br
    4.6	i	0.62	-23	-36	-15	-29	5	1.7
NCC(=O)NNC(=O)OCC1c2ccccc2-c2ccccc21
    3.6	i	0.66	10	10	0.0	1	-6	-2.0
COc1cc(C(=O)N2CCCCC2c2cc(C(=O)Nc3ccccc3Cl)no2)cc(OC)c1C (stereo unspecified)
    ·	i	·	11	10	4.1	·	·	-0.9
CCN(CC)CCn1c(NCc2ccc(OC)cc2)nc2ccccc21
    4.3	·	0.68	·	·	·	41	-13	1.5
CCOc1ccccc1Nc1nc2ccccc2[nH]1
    0.4	·	0.67	·	·	·	96*	-12	0.2
CN(C)S(=O)(=O)c1cc(C(=O)NCC2CCCO2)c(Cl)cc1Cl (stereo unspecified)
    5.7	·	0.68	·	·	·	-1	-4	2.0
COc1ccc(N2CCN(C(=O)c3cc4ccccc4o3)CC2)cc1
    1.9	i	0.68	-22	-30	-6.5	·	4	-1.3
CN(CC(=O)NCc1cccnc1)S(=O)(=O)c1ccc2c(c1)c(=O)n(C)c(=O)n2C
    4.9	i	0.73	11	16	-0.4	-11	6	-6.4
COc1ccc(OC)c(NC(=O)CCc2nnc3ccc(NCc4ccco4)nn23)c1
    4.7	i	0.69	-2	3	-0.4	-6	-1	-0.7
CCCNc1nc(NCC)nc(OC)n1
    0.0	·	0.72	·	·	·	0	6	-1.1
COc1ccc(CNC(=O)C2CCC(CNc3nc(=S)[nH]c4ccccc34)CC2)cc1 (stereo unspecified)
    2.5	·	0.76	·	·	·	0	·	·
O=C1c2c(O)cccc2Cc2cccc(O)c21
    3.4	i	0.68	·	·	·	-4	-1	-50
CN(c1ccccc1)S(=O)(=O)c1cccc(NC(=O)CC(C)(C)C)c1
    1.7	i	0.7	-15	-24	-5.2	·	-14	-0.7
Cn1c(CNC(=O)c2ccco2)nnc1SCC(=O)N1CCN(c2ccccc2F)CC1
    1.4	i	0.61	·	·	·	·	-4	-2.3
Cn1nc(C(F)(F)F)c(C(=O)Nc2ccc(F)cc2)c1Cl
    4.8	i	0.64	9	6	0.8	1	-4	0.4
O=C1CS/C(=C\[N+](=O)[O-])N1c1ccccc1
    14	·	0.67	·	·	·	?	-5	-0.4
C[C@H]1CN([C@@H](C)CO)C(=O)c2cc(C3=CCCCC3)cnc2O[C@@H]1CN(C)C(=O)Cc1ccccc1
    ·	i	·	-14	-22	3.1	·	·	-1.7
Cc1ccc(NC(=O)CN2C(=O)NC(Cc3ccccc3)C2=O)cc1 (stereo unspecified)
    3.8	·	0.75	·	·	·	-13	-5	2.6
Cc1ccc(C(=O)Nc2nnc(SCC(=O)N3CCCc4ccccc43)s2)cc1
    -0.4	i	0.7	-22	-15	5.0	·	0	1.7
Cc1cccc(C)c1NC(=S)NC(=O)c1ccccc1F
    3.2	·	0.68	·	·	·	1	-4	-0.3
O=C(CSc1ccc(-c2ccccn2)nn1)Nc1ccc(F)c(F)c1
    5.3	i	0.69	5	5	1.1	-2	-7	3.1
Cc1cc(-c2ccccc2)nc(N2CCC(C(=O)NC(C)C)CC2)n1
    -51	·	0.67	·	·	·	-3	-5	1.6
COc1ccc(Cl)cc1C(=O)NNC(=S)NC1CCCCC1
    5.1	i	0.7	-9	-14	-2.5	-4	1	-0.1
COc1ccc(-n2c(N)c(C(=O)Nc3c(C)n(C)n(-c4ccccc4)c3=O)c3nc4ccccc4nc32)cc1
    ·	i	·	7	1	1.8	-12	27	0.0
Brc1ccc(-c2nnc3c4ccccc4nc(N4CCOCC4)n23)cc1
    1.7	·	0.68	·	·	·	-3	25	0.4
COCC(=O)Nc1cc(OC)cc(OC)c1
    1.9	·	0.75	·	·	·	·	-2	1.6
CCNC(=S)N/N=C/c1cc(Br)cc(Br)c1OC
    ·	·	·	·	·	·	2	9	-0.3
Cc1cc(C(=O)Nc2ccccc2C(=O)O)ccc1NC(=O)COc1ccccc1Cl
    -36	i	0.72	-2	-14	0.4	56	0	2.5
CCCCSc1nc2ccccc2n1CC(=O)O
    0.8	·	0.69	·	·	·	2	-7	-0.1
O=C(Cc1ccccc1)NS(=O)(=O)c1ccccc1
    ·	i	·	-7	3	-4.3	·	·	2.5
CC(C)CC(=O)N1CCN(Cc2ccccc2Br)CC1
    7.0	i	0.71	7	-7	4.1	-8	0	2.4
NNC(=O)C1CCCn2c1nc1sc3c(c1c2=O)CCCC3 (stereo unspecified)
    1.6	·	0.72	·	·	·	8	0	0.1
CCCn1cnc2c(c1=O)c1nc3ccccc3nc1n2CCc1ccccc1
    -103	·	0.75	·	·	·	-17	-13	5.5
COc1ccc(CNC(=O)C2CC(=O)N(c3ccc(OCC(=O)N4C(C)CCCC4C)cc3)C2)cc1 (stereo unspecified)
    3.9	·	0.68	·	·	·	-9	-5	-1.0
CN1CCN(C(=O)Cn2ncc3c([nH]c4ccccc43)c2=O)CC1
    -0.3	i	0.68	16	10	2.2	-5	1	-0.8
COC(=O)c1ccc(OCC(=O)c2ccccc2)cc1
    2.1	·	0.69	·	·	·	-3	-9	0.2
CC1=CC(C)C(=O)N(C)C(C)=C1 (stereo unspecified)
    ·	i	·	8	8	-2.0	·	·	1.9
Cc1oc(/N=C/c2ccccc2O)c(C#N)c1C
    ·	·	·	·	·	·	-2	-11	-2.2
CCCn1c(C)cc(-c2csc(N)n2)c1C
    0.2	·	0.71	·	·	·	-7	-2	2.2
O=C(CCCC(=O)NN=Cc1ccccc1Cl)NN=Cc1ccccc1Cl
    ·	i	·	-15	-28	12	·	0	-1.6
COCCOc1cc(NCc2ccccc2)c2ncn(C(C)C)c2c1
    0.4	i	0.71	30	-5	4.0	?	0	1.5
Cc1cc2oc(=O)cc(CN3CCC(C)CC3)c2c(C)c1Cl
    0.3	·	0.73	·	·	·	·	-8	-3.5
Cc1nc2c(C)cccn2c1C(=O)N/N=C/c1ccccc1[N+](=O)[O-]
    ·	i	·	2	9	7.4	12	1	0.0
CCC(=O)Nc1cc(-c2nn3c(C)nnc3s2)ccc1C
    1.2	·	0.71	·	·	·	·	-4	1.7
Cc1ccc(NC(=O)C2C(C(=O)O)C3C=CC2C32CC2)cc1 (stereo unspecified)
    1.3	·	0.67	·	·	·	-9	-1	0.3
COc1cccc(OC)c1OCC(O)CN1CCN(c2ccccc2)CC1 (stereo unspecified)
    5.8	·	0.77	·	·	·	64	48*	1.0
O=S(=O)(Nc1nc(SCc2ccc(Cl)cc2)n[nH]1)c1ccccc1
    6.8	i	0.66	-29	-25	4.2	-2	-1	4.1
CC12C=CC3(CN(Cc4ccccc4)C(=O)C3C1C(=O)NC1CC1)O2 (stereo unspecified)
    4.3	·	0.73	·	·	·	-5	-5	1.3
CCC(NC(=O)c1ccccc1NC(=O)c1ccccc1)C(=O)NNC(=O)c1cccnc1 (stereo unspecified)
    7.3	i	0.64	21	21	2.9	-4	0	0.5
CC1CCN(C(=O)c2[nH]cnc2C(=O)Nc2nccs2)CC1
    -0.3	·	0.71	-2	1	-4.0	-3	-20	-1.5
O=C(Nc1cccc2nsnc12)c1ccc2c(c1)OCCO2
    -19	·	0.68	·	·	·	-25	-4	1.2
COc1ccc(CNC(=O)C(c2ccccc2F)N(C(=O)c2csnn2)C2CC2)cc1 (stereo unspecified)
    1.7	i	0.54	3	7	1.0	3	3	1.7
